# PK Bst = alters activity of Bacillus stearothermophilus pyruvate kinase. Potency, µM. partly purified Bacillus stearothermophilus pyruvate kinase, luminescence ATP production; ribose 5-phosphate activator present at AC10. 51,000 compounds, 1.2% hits; in the data active means potency below about 11 µM; inconclusive means mostly about 12 µM to 25 µM; inactive means weaker than that;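 the screen sought inhibitors and activators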;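 further: potency means the concentration at half of the fitted maximal effect; scaled between full activation by ribose 5 phosphate and full inhibition by luteolin; about four in five hits inhibit and the cells do not say which; series up to 57 µM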
# YjeE inh = inhibitors of E. coli YjeE (TsaE) | purified YjeE, fluorescence polarisation of a bound ADP probe | Potency, µM | 71,000 compounds, 0.05% hits | AID 605; active = well fitted falling curve; inconclusive = weaker or top-dose-only fall, or a rising curve; inactive = flat or poorly fitted curve;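 further: top concentration of the series not given in the record; excess ADP was the control for the full effect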
#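 Fluorescence polarization of a BODIPY Texas Red–ADP probe (2 uM) bound to purified YjeE (10 uM) was read after 15 min room-temperature incubation with compounds. Loss of polarization marks inhibitors; ADP serves as titrated control.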
# * marks the source's active call; other numbers are inactive results; i = inactive; ? = inconclusive; · = no result given.
# Each structure is followed by: PK Bst | YjeE inh
- O=C(CSc1nnc(CNC(=O)c2cccs2)o1)Nc1cccc(C(F)(F)F)c1
 : >57 | i
- COc1ccc(C)cc1NC(=O)c1cc2cc3ccc(C)cc3nc2o1
 : >57 | i
- CCc1nnc(NS(=O)(=O)c2ccc(NC(=O)OC)cc2)s1
 : >57 | i
- CC1(c2ccccc2Cl)NC(=O)N(CC(=O)NC(=O)NCc2ccco2)C1=O (stereo not given)
 : >57 | i
- O=C1C=C(NCc2ccco2)CCC1
 : >57 | i
- O=C(Cn1nc(-c2ccccc2)c2ccccc2c1=O)Nc1ccc2c(c1)nc1n2CCOC1
 : >57 | i
- O=C(Nc1ccc2c(c1)OCO2)c1cccc2c1C(=O)N(C1CCCCC1)C2
 : >57 | i
- CC1CCN(CCCNC(=O)c2cn(C)c3ccc(S(=O)(=O)N4CCCC4)cc3c2=O)CC1
 : >57 | i
- COc1ccc(S(=O)(=O)N(C)CC(=O)NCCC2=CCCCC2)cc1
 : >57 | i
- c1ccc(-c2csc3ncnc(NCCN4CCOCC4)c23)cc1
 : >57 | i
- Cc1nn(C)cc1C(N)=O
 : >57 | i
- Cc1cc(C)n(-c2nc3ccccc3c(=O)n2OCC(=O)OCc2ccccc2)n1
 : >57 | i
- CCOC(=O)N1CCN(C(=O)CN(c2cc(C(F)(F)F)ccc2Cl)S(C)(=O)=O)CC1
 : · | i
- O=C(NCCC1=CCCCC1)C1COc2ccccc2O1 (stereo not given)
 : >57 | i
- Cc1ccc(C)c2[nH]c(=O)c(CN(Cc3ccco3)C(=O)Nc3ccccc3)cc12
 : >57 | i
- CSc1nc2c(c(=O)n1C)SC(C)C2 (stereo not given)
 : · | i
- CC(C)(C)NC(=O)COc1ccc(CNn2nnnc2N)cc1
 : >57 | i
- CC(C(=O)Nc1nccs1)N1C(=O)C2CC=CCC2C1=O (stereo not given)
 : >57 | i
- CCN(c1c(C)n(C)n(-c2ccccc2)c1=O)S(C)(=O)=O
 : >57 | i
- CCOc1cccc(C(=O)Nc2ccc(N(CC)CC)cc2)c1
 : · | i
- COc1ccc(O)c(-c2cc(-c3cccc(Br)c3)n[nH]2)c1
 : · | i
- CCOC(=O)c1cccc(NC(=O)C2CCN(S(=O)(=O)c3cccs3)CC2)c1
 : >57 | i
- CCC(=O)c1ccccc1OCCN1C(=O)NC(C)(C)C1=O
 : >57 | i
- CCOc1cccc(C(=O)Nc2ccccc2OC(F)F)c1
 : >57 | i
- CC(NC(=O)CC12CC3CC(CC(C3)C1)C2)C(=O)O (stereo not given)
 : >57 | i
- CCOC(=O)NC(=O)CSc1nc(C)cc(C)c1C#N
 : · | i
- CCOC(=O)N1CCN(Cc2cccs2)CC1
 : · | i
- CCC/C=C(\CCC)C(NC(=O)C(C)(C)C)c1ccc(C(=O)OC)cc1 (stereo not given)
 : · | i
- Cc1ccc(N)cc1O
 : · | i
- COc1ccccc1N(C(=O)c1ccco1)C(C(=O)NC1CCCC1)c1cccnc1 (stereo not given)
 : >57 | i

# Continued; it opens with the 5 that closed the last part.
# Each structure is followed by: PK Bst | YjeE inh
- CCOC(=O)NC(=O)CSc1nc(C)cc(C)c1C#N
 : · | i
- CCOC(=O)N1CCN(Cc2cccs2)CC1
 : · | i
- CCC/C=C(\CCC)C(NC(=O)C(C)(C)C)c1ccc(C(=O)OC)cc1 (stereo not given)
 : · | i
- Cc1ccc(N)cc1O
 : · | i
- COc1ccccc1N(C(=O)c1ccco1)C(C(=O)NC1CCCC1)c1cccnc1 (stereo not given)
 : >57 | i
- C=C(C)C(N)=O
 : · | i
- Cc1ccccc1CS(=O)(=O)c1nnc([C@H](CC(C)C)NC(=O)OC(C)(C)C)o1
 : >57 | i
- O=C(c1cccc(C(=O)N2CCN(c3ccccc3F)CC2)n1)N1CCN(c2ccccc2F)CC1
 : >57 | i
- CCCCn1c(=O)c2c(c3ccccc31)OCC(=O)N2
 : >57 | i
- Cc1cc(C)c2c(n1)sc1c(N3CCOCC3)ncnc12
 : >57 | i
- CCOC(=O)N1CCN(CC(=O)Nc2ccc(C)cc2)CC1
 : · | i
- COc1ccc2[nH]cc(CCNc3ncncc3-c3cccnc3)c2c1
 : · | i
- Cc1csc(NC(=O)CSc2nnc3ncccn23)n1
 : >57 | i
- CCCc1ccc(-c2ccc(C(=O)O)cc2)nc1
 : · | i
- COc1ccc(-n2c(SCC(=O)c3c(N)n(C)c(=O)n(C)c3=O)nc3ccccc32)cc1
 : >57 | i
- Cc1onc(-c2ccccc2)c1C(=O)Nc1nc2c(s1)CCCC2
 : >57 | i
- O=C1CN(CC(=O)N2CCOCC2)c2ccccc2O1
 : >57 | i
- O=C(CSc1nc2ccccc2o1)N1CCN(C(=O)c2ccco2)CC1
 : >57 | i
- CCOC(=O)c1cnn(-c2cc(C)c3cc(C)cc(C)c3n2)c1N
 : >57 | i
- CC(=O)N1CCN(c2ccc(Oc3nnnn3-c3ccccc3)cc2)CC1
 : ? | i
- CCC(=O)Nc1ccc2c(c1)ncn2-c1ccccc1OC
 : >57 | i
- COc1ccc(NC(=O)CSc2nnc(-c3ccccc3)n2Cc2ccco2)c(OC)c1
 : >57 | i
- CCCn1c(=NC(C)=O)c(C#N)cc2c(=O)n3cccc(C)c3nc21
 : >57 | i
- Cc1noc(C)c1S(=O)(=O)N1CCC(C(=O)N2CCN(C3CCCC3)CC2)CC1
 : >57 | i
- COC(=O)c1ccc(COC(=O)c2ccc(N(C)C)cc2)cc1
 : >57 | i
- Cc1cccc(C)c1OCc1nnc(SCC(=O)Nc2nccs2)n1-c1ccccc1
 : >57 | i
- COc1ccc(N(CC(=O)N2CCC(C)CC2)S(=O)(=O)c2c(C)nn(C)c2C)cc1
 : · | i
- O=C(Nc1ccc(S(=O)(=O)N2CCCC2)cc1Cl)C1=COCCO1
 : >57 | i
- O=C(NCc1ccco1)C1CCN(C(=O)c2cc3sccc3n2Cc2ccc(Cl)cc2)CC1
 : >57 | i
- CCOC(=O)Cc1nnc(NC(=O)c2cccc(OCC)c2)s1
 : >57 | i
- O=C(NCC1CCCO1)C1CCCN(Cc2cnn(-c3ccccc3)c2-n2cccc2)C1 (stereo not given)
 : >57 | i
- CC(=O)N1CCN(C(C)=O)C1c1ccccc1
 : · | i
- CNC(=O)CSc1nc2c(c(=O)n(C)c(=O)n2C)n1Cc1ccc(C)cc1
 : >57 | i
- Cc1cccc(NC(=O)CSCc2c(C)noc2C)c1C
 : >57 | i
- O=C(Nc1ccc(F)cc1)N(Cc1ccco1)Cc1cc2cc3c(cc2[nH]c1=O)OCO3
 : 3.8* | i
- CN(c1ccc(C(=O)O)cc1)S(=O)(=O)c1ccccc1
 : · | i
- O=C(CN1C(=O)C2CC=CCC2C1=O)Nc1ccc(S(=O)(=O)NC2=NCCCCC2)cc1 (stereo not given)
 : >57 | i
- CC(=O)Oc1ccc2c(C)c(CC(C)O)c(=O)oc2c1 (stereo not given)
 : >57 | i
- C=CCNC(=O)C12CC3CC(C1)CC(C(=O)NCC=C)(C3)C2
 : >57 | i
- CCc1ccc(C2CC(c3cccc(OC)c3)n3nc(N)nc3N2)cc1 (stereo not given)
 : · | i
- CCOC(=O)C1CCN(S(=O)(=O)c2cccc(-c3cn4ccccc4n3)c2)CC1
 : >57 | i
- O=C(O)c1ccc2c(c1)C(=O)N(C(Cc1ccccc1)C(=O)O)C2=O (stereo not given)
 : · | i
- Cn1cc(C(=O)c2ccccc2)cc1-c1nc2ccccc2n1C
 : >57 | i
- COc1ccc(NC(=O)CN2C(=O)C(C)Oc3ccccc32)cc1 (stereo not given)
 : >57 | i
- N#CCCN(CCC#N)c1nncs1
 : >57 | i
- C/C(=C\C(=O)Nc1cc(C)on1)c1ccccc1
 : · | i
- CCOC(=O)N1CCN(C(=O)c2ccccc2CCc2ccccc2)CC1
 : >57 | i
- Cc1cccc2cc(CN(Cc3ccc(F)cc3)C(=O)N(C)C)c3nnnn3c12
 : >57 | i
- CC(C)Nc1ncnc2c1cnn2-c1ccc(Cl)cc1
 : · | i
- COc1ccc(OC)c(CN2CCN(c3ccccc3OC)CC2)c1
 : · | i
- COc1ccc(C2C(C(=O)Nc3ccccc3OC)=C(C)Nc3ncnn32)cc1 (stereo not given)
 : · | i
- O=c1[nH]n(-c2ccccc2)c(=O)c2ccccc12
 : · | i
- CCc1ccccc1NC(=O)CN(c1cccc(OC)c1)S(C)(=O)=O
 : · | i
- COc1ccc(-n2c(=O)c(-c3cc(F)cc(F)c3)nc3cncnc32)cc1
 : · | i
- CC(Sc1nnnn1-c1ccccc1)C(=O)Nc1ccc(Cl)cn1 (stereo not given)
 : >57 | i
- Cc1cccc(N2CCN(C(=O)CCCOc3ccccc3)CC2)c1C
 : · | i
- CC(=O)c1cc(C)ccc1OC(=O)c1ccco1
 : · | i
- Clc1ccc(Cn2ncc3c(N4CCOCC4)ncnc32)cc1
 : >57 | i
- CCN(CC)S(=O)(=O)c1ccc(C(=O)NCc2n[nH]c(=S)n2-c2ccccc2OC)cc1
 : >57 | i
- COc1cc(C(=O)N2CCC(NC(=O)C(Cc3ccccc3C)NC(C)=O)CC2)cc(OC)c1OC (stereo not given)
 : >57 | i
- COc1ccc(CNC(=O)CSc2nnc(C)s2)cc1
 : · | i
- NC(=O)Cn1cnc(-c2ccccc2)c1
 : >57 | i
- CCOC(=O)CNC(=O)CSc1nc2cccnc2n1C1CCCCC1
 : >57 | i
- COc1ccc(C)cc1-n1nnnc1SC/C(O)=C(\C#N)c1nc2ccccc2[nH]1
 : >57 | i
- Fc1ccccc1CSc1nc2ncccc2[nH]1
 : · | i

# Further results
# Each structure is followed by: PK Bst | YjeE inh
- Cc1cc(C)n(C(=O)Cc2cn3ccsc3n2)n1
 : >57 | i
- COc1ccc(C(C(O)C(=O)c2c[nH]c3ccccc23)N2CCN(c3ccc(OC)cc3)CC2)cc1 (stereo not given)
 : >57 | i
- COc1cc(C(=O)NCCC(=O)NCCN2CCCCCC2)cc(OC)c1OC
 : >57 | i
- COc1ccc(S(=O)(=O)N2CCN(C(=O)c3cccs3)CC2)cc1
 : · | i
- CCOC(=O)CSC1=C(C#N)C(c2ccc(F)cc2)C(C(C)=O)=C(C)N1 (stereo not given)
 : >57 | i
- CCC[C@@H]1C[C@@]1(CCC)C(NC(=O)c1ccco1)c1ccc(Cl)cc1 (stereo not given in full)
 : · | i
- COc1ccccc1NC(=O)c1oc2ccccc2c1NC(=O)c1ccco1
 : >57 | i
- NC1=NC2(CCCCC2)n2c(nc3ccccc32)N1
 : >57 | i
- COCCn1c(=O)[nH]c2cc(C(=O)NC3CCCCCC3)ccc2c1=O
 : · | i
- C=CCSC1=N/C(=C\c2ccsc2)C(=O)S1
 : · | i
- CCC1(C(=O)OC)NC(c2ccco2)C2C(=O)N(c3ccc(C)cc3)C(=O)C21 (stereo not given)
 : >57 | i
- CCN(CC)CCNC(=O)c1c(O)c2c([nH]c1=O)CCCC2
 : >57 | i
- N#CC1=C(N)Oc2n[nH]c(-c3ccc(F)cc3)c2C1c1cccnc1 (stereo not given)
 : >57 | i
- O=C(NCCCN1CCN(C2CCCCC2)CC1)Nc1ccccc1C(F)(F)F
 : >57 | i
- CN(C)S(=O)(=O)N1CCC(C(=O)O)(c2ccccc2)CC1
 : >57 | i
- CCCCC1CCC(c2nc(-c3ccccn3)no2)CC1 (stereo not given)
 : · | i
- COc1ccc2nc(NC(=O)C(NS(=O)(=O)c3cccs3)C(C)C)sc2c1 (stereo not given)
 : >57 | i
- COc1cccc(-c2csc(NC(C)=O)n2)c1
 : · | i
- O=S(=O)(c1cccc(-c2nnc(SCc3ccc(Cl)cc3)o2)c1)N1CCCCC1
 : >57 | i
- CCS(=O)(=O)N1CCN(C(=O)c2cccs2)CC1
 : · | i
- CSc1nnc(-c2cc3ccccc3cc2O)n1C
 : >57 | i
- Nn1c(CSc2nc3ccccc3o2)nnc1CSc1nc2ccccc2o1
 : >57 | i
- CCCC(C)NS(=O)(=O)c1ccccc1 (stereo not given)
 : >57 | i
- C/C(=N/n1cnnc1)c1cccnc1
 : >26 | ·
- Cc1cccc(N2CCN(C(=O)c3cn(C)c(=O)c4c3c3ccccc3n4C)CC2)c1C
 : >57 | i
- COc1cc(OC)cc(-n2nnnc2SCC(=O)N2CCCC2)c1
 : >57 | i
- CCOC(=O)c1oc2nc3c(cc2c1N)COC(C)(C)C3
 : >11 | i
- CC(NC(=O)CSc1nc2ccccc2c(=O)[nH]1)c1ccccc1 (stereo not given)
 : >57 | i
- COC(=O)c1cc(NC2c3ccccc3C(=O)N2CCN2CCOCC2)cc(C(=O)OC)c1 (stereo not given)
 : · | i
- COCc1[nH]nc2c1C1(CCC3(CC1)OCCO3)C(C#N)=C(N)O2
 : >57 | i
- Cc1c(N=CN2CCOCC2)c(=O)n(C)c(=O)n1C
 : >57 | i
- CCn1c(SCC(=O)O)nnc1-c1cc2c(C)nn(-c3ccccc3)c2s1
 : i | i
- O=C(C1=C(O)C(=O)N(CCN2CCOCC2)C1c1cccnc1)c1cc2ccccc2o1 (stereo not given)
 : >26 | ·
- Cc1nn(Cc2ccccc2Cl)c2sc(C(=O)NCCCn3ccnc3)cc12
 : >57 | i
- CCOC(=O)CC(=O)Nc1cc(Cl)ccc1O
 : >57 | i
- O=C(Nc1ccc(F)cc1)NC1(C(=O)NCc2ccco2)CCCCC1
 : >57 | i
- Cc1oc(/N=C/c2ccc(Cl)cc2)c(C#N)c1C
 : · | i
- COCCCN1C(=O)C(=O)/C(=C(/O)c2ccc(OC)cc2C)C1c1cccnc1 (stereo not given)
 : >57 | i
- COc1cccc(C(=O)Nc2ccc3nc(N4CCOCC4)cc(C)c3c2)c1
 : · | i

# Bioassay records (PubChem BioAssay)

# Only part of the results is shown; rates above refer to the full screens.
